Screens as filed in PubChem.
TRPML1 agonist = activates the human TRPML1 channel; TRPML1-expressing cells, Ca2+ dye fluorescence, FDSS; host cell line not named in the record; reference of the full effect not given here; Q9GZU1; AID 624414; 0.12% of 410,000 active; activation, % (test concentration not listed); in the data active = activation above about 50%; inconclusive = about 30% to 50%; inactive = below about 30%; note: 0% is about no effect; the text of the record puts the active cut at 80%
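In this qHTS format, compounds were pin-transferred onto Ca8-dye-loaded TRPML1-DL cells induced with Tet overnight, and intracellular Ca2+ fluorescence was recorded kinetically for 110 s after a 10 s baseline. A subsequent 4uM final 54-4 (EC80) addition followed by a second 110 s read served as the antagonist phase.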
D2 ag = activates the human D2 dopamine receptor. DiscoveRx PathHunter D2 beta-arrestin, luminescence, 90 min; 100% = 57 uM dopamine signal. activation, % (no concentration beside the values). 0.084% of 360,000 active. AID 624465; in the data active = activation above about 40%; inconclusive = about 15% to 40%; inactive = below about 15%; note: compound concentration not given in the record; the text of the record calls up to 30% inactive
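Agonist mode: compounds alone added to overnight-plated D2 PathHunter cells for 90 min at 37 C, with 57 uM final dopamine (EC100) defining full response. Beta-arrestin recruitment detected by chemiluminescent reagent, read after 1 h at ambient temperature.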
PINK1 modulator = modulators of PINK1 expression | PINK1 immunofluorescence, high-content cytometry, 24 h | Potency, µM (series often up to 76.6 µM), inactives show top-dose activation (PINK1 increase), hits mostly activators | 0.2% of 410,000 active | AID 624263; active = well fitted activation curve with a large enough effect; inconclusive = small, poorly fitted or top-dose-only effect; inactive = flat fitted curve, though single readings scatter; cell line not stated here;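 note: potency is the fitted concentration of half-maximal effect; % of control where 0% means no effect; nearly all actives have a fitted effect of over 65% in size; a mitochondrial uncoupler was the plate control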
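Compound titrations (5 concentrations, 24 h) on a stable cell line; DMSO and CCCP controls. Endpoint: fixed-cell PINK1 immunofluorescence with mitochondrial, cell and nuclear markers, scanned by microplate cytometer.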
D2 potentiator = potentiates the human D2 dopamine receptor allosterically. 0.23% of 360,000 active. DiscoveRx D2 beta-arrestin cells, luminescence, 90 min; 100% = 57 uM dopamine signal. potentiation, % (concentration not given with the values). P14416; active = potentiation of 50% or more; inconclusive = 30% to 50%; inactive = 30% or less;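 note: compound concentration not given in the record; tested on top of an EC20 dose of dopamine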
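PathHunter D2 cells, attached overnight at 37 deg C, received compound in DMSO plus dopamine at EC20 (50 nM final) for 90 min at 37 deg C. Beta-arrestin recruitment was read as luminescence after 1 h with detection reagent at ambient temperature.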
Six1-Eya2 inh = blocks human Six1 binding to Eya2; Q15475+O00167; AlphaScreen GST-Six1/His-Eya2 binding, biochemical; active compounds read low; control for the full effect not named in the record; activity change, % (concentration not given with the values); 0.56% of 360,000 active; in the data active = activity change below about -65%; inconclusive = about -30% to -65%; inactive = above about -30%; note: % is set by controls: 0 for no effect and ±100 for the full control effect
Target sequence (O00167 whole entry, looked up): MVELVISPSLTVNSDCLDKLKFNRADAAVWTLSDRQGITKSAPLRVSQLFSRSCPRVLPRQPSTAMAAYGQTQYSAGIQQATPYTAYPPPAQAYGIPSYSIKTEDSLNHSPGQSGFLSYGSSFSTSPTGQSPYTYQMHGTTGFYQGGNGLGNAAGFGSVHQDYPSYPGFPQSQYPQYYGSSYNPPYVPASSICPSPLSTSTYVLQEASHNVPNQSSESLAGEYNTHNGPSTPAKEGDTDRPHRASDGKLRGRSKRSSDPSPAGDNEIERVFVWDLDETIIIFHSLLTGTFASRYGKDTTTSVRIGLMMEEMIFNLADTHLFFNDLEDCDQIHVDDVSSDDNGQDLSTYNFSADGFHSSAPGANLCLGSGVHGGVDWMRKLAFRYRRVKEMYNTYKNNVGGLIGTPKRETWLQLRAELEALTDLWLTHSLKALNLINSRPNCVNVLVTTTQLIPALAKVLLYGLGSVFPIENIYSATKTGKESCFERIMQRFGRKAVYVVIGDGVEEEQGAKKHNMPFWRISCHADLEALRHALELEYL
Target sequence (Q15475 whole entry, looked up): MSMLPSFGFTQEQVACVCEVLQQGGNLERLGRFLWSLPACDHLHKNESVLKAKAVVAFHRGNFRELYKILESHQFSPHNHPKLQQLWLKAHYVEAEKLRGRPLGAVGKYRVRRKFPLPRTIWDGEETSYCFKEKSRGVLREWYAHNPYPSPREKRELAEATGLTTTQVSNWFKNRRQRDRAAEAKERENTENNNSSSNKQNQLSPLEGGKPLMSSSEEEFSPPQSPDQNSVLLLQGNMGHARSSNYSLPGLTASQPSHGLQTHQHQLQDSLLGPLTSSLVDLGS
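AlphaScreen luminescence read after one hour at 37 °C in darkness. Pin-transferred compounds met GST-Six1 and His-Eya2 protein (5X stock 250 nM/500 nM) plus glutathione donor and Ni-chelate acceptor beads (5X, 50 ug/mL).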
TRPML1 blocker = blocks the human TRPML1 channel; TRPML1-inducible cells, Ca2+ dye fluorescence, FDSS; active compounds read low; inhibition of EC80 agonist-evoked calcium signal; Q9GZU1; 0.02% of 390,000 active; activity change, negative = inhibition, % (no concentration beside the values); AID 624415; in the data active means activity change below about -50%; inconclusive means about -30% to -50%; inactive means above about -30%;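 note: stimulus is agonist 54-4 at its EC80 concentration; % is set by controls: 0 for no effect and ±100 for the full control effect; compound concentration not given in the record; the text of the record puts the active cut at -80%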
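Tet-induced TRPML1-DL cells loaded with Ca8 no-wash calcium dye were read kinetically on FDSS. Compound addition was followed by EC80 agonist 54-4 (4 uM final); inhibition was read over 110 s.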
Starred values were filed as active, the others as inactive; u = inconclusive; x = not tested or not shown; [ ] = another dose, or the depositor's remark.

SMILES	TRPML1 agonist	D2 ag	PINK1 modulator	D2 potentiator	Six1-Eya2 inh	TRPML1 blocker
CCOC(=O)CNC(=O)CSc1nnc(-c2ccccc2)c(-c2ccccc2)n1	-0.4	-0.5	6.9%	-35	-13	-6
COc1ccccc1NC(=O)C/C(N)=N/OCC(=O)Nc1cccc(Cl)c1	2.5	-0.3	0.7%	-25	0	-10
COc1cccc(NC(=O)c2ccccc2Br)c1	-0.6	-1.1	0.8%	4	2	-16
Cc1ccc(CCNC(=O)C23CN(Cc4ccccc4)CC2C(c2ccc([N+](=O)[O-])cc2)=NO3)cc1 (configuration not stated)	-0.4	4.3	2.7%	-5	u	-21
O=C(NCc1cccnc1)c1cc(C2CCCCN2S(=O)(=O)c2ccccc2)on1 (configuration not stated)	0.8	3.2	1.6%	-4	5	3
N#CC(c1ccc(Cl)cc1)c1ncc(C(F)(F)F)cc1Cl (configuration not stated)	7.7	-1.2	1.6%	-13	18	-4
O=C(O)CCCC(=O)NS(=O)(=O)c1ccc(Cl)cc1	1.8	-3.2	-2.4%	-24	0	7
CC1CCCC(NC(=O)C2N(CCCN3CCCC3)C(=O)C3C(C(=O)Nc4ccc(Cl)cc4)C4C=CC32O4)C1C (configuration not stated)	-0.6	-1.4	-0.7%	-14	-5	11
Cc1ccc(C)c(NC(=O)c2ccccn2)c1	1.8	-0.5	2.1%[38.3 µM]	-5	4	-4
COc1ccc(CCNC(=O)COC(=O)c2ccc(S(=O)(=O)N3CCCC3)cc2)cc1OC	2.2	2.0	-2.4%	-3	-5	35
CCc1nc2oc3ccc(C)cc3c(=O)c2cc1C(=O)OC	-1.6	2.4	9.5%	0	4	12
O=C1CC(c2ccccc2)CC(O)=C1C=NCC1CCCO1 (configuration not stated)	-0.1	-0.5	0.0%	3	5	20
CCS(=O)(=O)Nc1c(C)n(C)n(-c2ccccc2)c1=O	0.7	-1.0	-2.3%[38.3 µM]	2	1	-4
O=C(C[C@@H]1C/C=C/CC[C@H](Cc2ccc(F)cc2)C(=O)OCCNC1=O)N[C@H](CO)Cc1ccccc1	-0.4	2.7	-0.2%	x	0	2
COc1ccc2oc(C(=O)OCC(=O)N(CCC#N)c3ccccc3)c(C)c2c1	0.8	-1.9	-2.1%	-17	-3	-17
CCC(=O)N1CCc2cc(S(=O)(=O)CCC(=O)N3CCN(c4ccc(F)cc4)CC3)ccc21	-0.4	-1.5	1.0%	-7	5	0
Cc1cccc(NC(=O)c2sc(Cl)nc2C)c1C	1.4	2.9	-1.3%	-10	0	6
C=C1CCC(C)C(C)(CCC2=CCOC2=O)C/C=C\C=C/1C(=O)O (configuration not stated)	-0.3	-1.0	0.3%	3	-5	-17
CCc1ccc(N(CC(=O)Nc2ccc(OC)cc2OC)S(C)(=O)=O)cc1	-1.1	0.2	1.0%	-11	6	-9
CC(C)CC(=O)N/C(N)=N/c1nc2ccccc2s1	-0.3	-0.9	19%	-17	4	-8
O=c1cc(CO)[nH]nc1CO	-0.6	-3.8	0.1%	-2	-17	-5
CC1(C)C(=O)C2(CCCCC2)C(=O)OC1c1cccc([N+](=O)[O-])c1 (configuration not stated)	-0.6	-0.8	-0.7%	0	-5	-1
O=c1cc(-c2ccccc2)oc2ccc(Br)cc12	1.4	0.2	1.3%	-6	12	19
NC(=O)c1ccc(NC(=O)CSc2nnc(C3CC3)n2C2CC2)cc1	-0.3	3.3	1.9%	2	6	-8
Cc1nnc(SCc2ccc(Cl)cc2)c2cc3occc3n12	1.0	x	-0.4%	x	x	32
COc1ccc(C(CNC(=O)c2ccc(C)c(S(=O)(=O)N3CCCCC3)c2)N(C)C)cc1OC (configuration not stated)	0.5	-2.6	1.6%	-11	11	3
CC(=O)N1CCCc2cc(S(=O)(=O)N3CCCC(C(=O)N4CCN(c5ccccc5F)CC4)C3)ccc21 (configuration not stated)	-1.4	x	-1.3%	x	x	-17
CSc1ncnc2c1ncn2CCCN1CCN(Cc2c(C)cc(C)cc2C)CC1	x	-3.0	2.7%	x	19	x
Cc1cccc(NC(=O)Cc2nc(-c3c[nH]c(C(=O)N4CCCC4)c3)cs2)c1	3.8	11	-1.0%	13	-4	9
CC(C)NCCOCCOc1ccccc1F	0.9	-2.5	-0.8%	-26	13	-3
CCCOc1ccc(S(=O)(=O)NCCN2CCOCC2)c2ccccc12	0.2	-3.9	1.6%	-1	3	u
C[C@@H]1CN([C@@H](C)CO)C(=O)CCCn2nncc2CO[C@@H]1CN(C)C(=O)Nc1cccc(Oc2ccccn2)c1	-0.4	-4.3	-0.4%	0	-1	16
COc1cccc(CN2CC(C(=O)NCCc3ccc(C)s3)CCC2=O)c1 (configuration not stated)	1.3	-5.3	0.1%	14	2	22
COc1cc(O)ccc1C(=O)CCc1ccc(O)cc1	-0.2	-0.8	0.8%	1	6	36
O=C(NNS(=O)(=O)c1ccc(Br)cc1)c1ccccc1-n1cccc1	1.3	-4.4	1.2%	-8	16	-4
COc1cccc(CNS(=O)(=O)c2ccc3c(c2)oc(=O)n3C)c1	2.4	-4.5	0.1%	-10	9	5
COC(=O)C1=C(C)NC(C)=C(C(=O)OC)C1c1cn(-c2ccccc2)nc1-c1ccco1	-0.1	0.0	12%	-18	-3	-13
O=C(Nc1ccc(-c2nc3cc(NC(=O)c4ccc(Cl)cc4)ccc3o2)cc1)c1ccc(Cl)cc1	-0.4	x	0.6%	x	x	-13
NC(c1ccccc1)c1csc(NC(=O)NCCc2ccccc2)n1 (configuration not stated)	2.5	-10	8.0%	-20	u	x
COc1ccccc1Nc1nc(=O)[nH]nc1C	1.3	-0.9	6.4%[38.3 µM]	-8	4	14
Cn1ncc2c(Nc3ccc(Br)cc3)nc(Nc3ccc(Br)cc3)nc21	1.3	-4.5	-2.0%	-1	-4	-12
CC(=O)c1ccc(NC(=O)C(C)n2c3ccccc3c3nc(=O)cc(C)n32)cc1 (configuration not stated)	-0.2	-2.3	-1.2%	-7	2	15
N=C1S/C(=C\c2ccc(O)cc2)C(=O)N1c1ccc(F)cc1	-0.5	-2.4	3.0%	0	2	-8
CCN(CC)c1cc(-c2ccccc2)ncn1	-0.6	-9.7	-1.8%	-1	-13	-6
Cc1cc(N)n2nc(C)c(-c3ccccc3)c2n1	3.9	0.1	-2.1%	4	-3	2
Cc1ccc(S(=O)(=O)N2CCOCC2)cc1NC(=O)CNc1ccccc1N1CCCC1=O	-0.9	-3.0	3.7%	-22	0	-3
Cn1c(SCC(=O)N/N=C/c2cc([N+](=O)[O-])ccc2O)nnc1-c1ccccc1	0.3	-8.3	0.2%	-2	u	-20
Cc1ccc(CNCc2c(C(=O)O)n(Cc3ccc(C)cc3)c3cc(C)ccc23)cc1	0.5	x	5.2%	x	x	30
O=C(C1CCCO1)N1CCN(c2ccc(F)cc2)CC1 (configuration not stated)	-0.6	0.0	0.8%	24	-1	9
CCOCCCNc1nc(C)nc2c1nnn2Cc1c(F)cccc1Cl	0.1	-0.9	6.3%	-4	3	-3

Further compounds follow.
SMILES	TRPML1 agonist	D2 ag	PINK1 modulator	D2 potentiator	Six1-Eya2 inh	TRPML1 blocker
CC(C)(C)NC(=O)NC(=O)CN1CCN(c2cccc(Cl)c2)CC1	0.1	-2.3	2.7%	-8	-12	7
O=[N+]([O-])c1ccc(-c2nc(Cl)c3c(n2)CCCC3)o1	-0.4	-2.5	-1.2%	-21	4	-13
Cc1ccc(NC(=O)c2ccc(NC(=O)N3CCSc4nc(C)cc(C)c43)cc2)c(Cl)c1	2.8	x	0.3%	x	x	14
CSCCC(NC(=O)c1ccccc1)C(=O)N1CCCCCCC1 (configuration not stated)	-2.2	0.5	1.0%	15	-5	-14
COc1ccc(N2CC(C(=O)NCCN3C(=O)S/C(=C\c4cccnc4)C3=O)CC2=O)c(OC)c1 (configuration not stated)	-0.3	-3.3	-1.6%	-13	2	-18
COC(=O)c1cccc(NC(=S)NCc2ccc(Cl)cc2)c1	2.7	-5.9	0.0%	-17	-1	-4
COc1ccc(C(=S)N2CCNCC2)cc1	0.2	-0.3	0.4%	-26	4	-6
CCOC(=O)C1=C(c2ccccc2)NC(SCC)=C(C#N)C1c1cccnc1 (configuration not stated)	1.8	1.2	-0.6%	-16	3	0
O=CC(O)C1OC(=O)C(O)C1O (configuration not stated)	x	-3.1	-0.9%	-17	u	x
CC(=O)Nc1ccc(OCCOc2ccc(NC(C)=O)cc2)cc1	0.5	0.0	0.2%	-5	20	7
CC(=O)N1CCN(c2nc(N)c(C#N)c(CC#N)c2C#N)CC1	x	-0.1	-0.7%	-5	0	x
Clc1ccc(Cn2cccc2C2=NCCO2)cc1	-0.4	0.0	2.2%	-5	-13	-5
CC(=O)Nc1ccc(S(=O)(=O)N2CCN(S(=O)(=O)c3ccccc3)CC2)cc1	1.1	3.4	-0.5%	2	-1	-3
O=C(CN1CCC(NC(=O)c2ccccc2Cl)CC1)NCc1ccccc1	-0.6	1.4	1.7%	-14	-4	-4
CC(C)c1ccc(/C=C(\C#N)c2nc(-c3cc4ccccc4oc3=O)cs2)cc1	-0.7	x	1.8%	x	x	0
N#CC(c1ccccc1F)(c1ncc(C(F)(F)F)cc1Cl)N1CCOCC1 (configuration not stated)	1.2	-2.9	4.7%[38.3 µM]	3	-9	-7
O=S(=O)(Nc1cccc2nsnc12)c1ccccc1	-0.4	-1.6	-1.2%[38.3 µM]	9	-4	-8
Cc1ccc(NC(=O)CO/N=C(\N)c2nonc2N)cc1C	-0.9	-2.9	0.8%	-6	5	u
C=CCN1C(=O)C(C)(C)N(C(=O)c2cccc([N+](=O)[O-])c2)c2ccccc21	1.7	-0.4	1.4%	2	3	6
COc1ccccc1Nc1nc(-c2cccc([N+](=O)[O-])c2)nc2ccccc12	2.2	2.4	3.3%	8	4	3
Cc1ccc(/C=C2\C(=N)N3N=C(CC(=O)N4CCCCC4)SC3=NC2=O)cc1	0.7	-0.7	-0.1%	-11	2	-4
Cc1noc(C)c1NC(=O)Nc1ccc2c(c1)C(=O)N([C@H](C)CO)C[C@H](C)[C@@H](CN(C)S(=O)(=O)c1c(C)noc1C)O2	-0.5	-0.8	0.2%	-2	-2	29
Cn1nnnc1-c1cc(Cl)cc(Cl)c1	0.1	4.6	1.1%	2	30	4
